Assay outcomes: PubChem, National Center for Advancing Translational Sciences (NCATS)
NPR1 antag: blocks ANP-stimulated signaling of human Npr1 receptor; P16066; HEK293 hNpr1 GloSensor cGMP, ANP-stimulated luminescence; Potency, µM (titrated, usually from 46.3 µM), for inactives: at the top dose activity change, negative = inhibition, hits mostly inhibitors; 1.6% of 76,000 active; AID 1347048; active = well fitted inhibition curve with a large enough effect; inconclusive = small, poorly fitted or top-dose-only effect; inactive = no such curve, though single readings can be large or run the other way;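 further: nearly all actives have a fitted effect of over 60% in size; nearly all hits also lower the signal before the agonist is added; a reference antagonist and vehicle were the controls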
Target sequence (P16066 whole entry, looked up): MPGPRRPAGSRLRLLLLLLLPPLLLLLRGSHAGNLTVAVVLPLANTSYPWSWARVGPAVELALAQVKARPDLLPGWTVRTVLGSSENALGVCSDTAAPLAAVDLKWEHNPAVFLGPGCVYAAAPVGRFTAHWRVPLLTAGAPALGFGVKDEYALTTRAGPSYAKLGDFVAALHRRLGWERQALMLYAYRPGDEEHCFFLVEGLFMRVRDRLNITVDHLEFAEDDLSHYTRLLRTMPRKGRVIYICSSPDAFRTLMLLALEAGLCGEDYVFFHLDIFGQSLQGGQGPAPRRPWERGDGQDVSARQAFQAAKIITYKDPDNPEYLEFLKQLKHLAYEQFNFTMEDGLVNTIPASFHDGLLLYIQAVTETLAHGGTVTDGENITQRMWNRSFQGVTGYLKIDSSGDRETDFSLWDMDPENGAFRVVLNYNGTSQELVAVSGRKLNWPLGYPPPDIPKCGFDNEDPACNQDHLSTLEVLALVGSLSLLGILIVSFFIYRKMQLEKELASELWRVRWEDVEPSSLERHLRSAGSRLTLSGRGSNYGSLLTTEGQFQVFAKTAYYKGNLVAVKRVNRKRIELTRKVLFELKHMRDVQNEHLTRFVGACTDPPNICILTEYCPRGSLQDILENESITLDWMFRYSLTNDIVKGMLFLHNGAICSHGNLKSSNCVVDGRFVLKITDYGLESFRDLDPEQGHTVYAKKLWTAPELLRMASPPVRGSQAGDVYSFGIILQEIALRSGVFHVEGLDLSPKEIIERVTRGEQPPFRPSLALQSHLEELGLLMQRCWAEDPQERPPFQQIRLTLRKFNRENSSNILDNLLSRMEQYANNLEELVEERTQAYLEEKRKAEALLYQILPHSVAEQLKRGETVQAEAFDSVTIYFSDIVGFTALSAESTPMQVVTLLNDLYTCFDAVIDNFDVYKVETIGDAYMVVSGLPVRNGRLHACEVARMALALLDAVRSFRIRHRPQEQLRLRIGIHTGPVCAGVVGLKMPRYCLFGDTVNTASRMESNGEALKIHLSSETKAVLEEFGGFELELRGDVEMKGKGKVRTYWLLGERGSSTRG
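HEK293 cells stably expressing human Npr1 and cGMP GloSensor pGS-40F, loaded 2 h with 2% GloSensor reagent, given compound 30 min at room temperature. Luminescence read before and 20 min after 0.1 nM hNppA.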
* hit, by the source's call; ? = inconclusive; [ ] = another dose, or the depositor's remark. On the % scale 0 is the no-effect control and ±100 the full control effect; potency means the concentration at half of the fitted maximal effect. The list is partial; the hit share may differ from the screen's.

NPR1 antag	compound
-1%	Cc1cc(C(=O)NC2CC(=O)N(Cc3ccccc3C(F)(F)F)C2)nn1C (configuration not stated)
3%	O=C(Nc1ccc(F)cc1F)N1CCCC(Cn2c(C3CC3)nc3cccnc32)C1 (configuration not stated)
5%	Cn1ccnc1CN1C[C@@H](C(=O)O)C[C@@H](C(=O)NCc2ccncc2)C1
3%	c1cc(CN2CC[C@H]3CNC[C@H]32)cc(OCCCCN2CCCCC2)c1
1%	CCc1cc(C(=O)NCc2cc3n(n2)CCCN(S(C)(=O)=O)C3)cs1
1%	COCC(=O)N1CC(C(=O)Nc2ccccn2)C2(CCOCC2)C1 (configuration not stated)
4%	CCS(=O)(=O)N1CCC(Cc2nncn2Cc2ccccc2)C1 (configuration not stated)
-3%	Cc1ccc(C)c(CN2CCn3c(nn(CCCOc4ccc(F)cc4)c3=O)C2=O)c1
-8%	Cc1ccc(C(=O)NC(C(=O)N2CCCC2)C2CCN(C(=O)c3ccccc3F)CC2)cc1 (configuration not stated)
3%	O=[S+]1([O-])NCC2(CCN(Cc3cccc4ccccc34)C2)Nc2ccccc21 (configuration not stated)
-13%[70.6 µM]	Fc1ccccc1-c1nnc([C@H]2CCN(Cc3ccco3)C2)o1
-13%	Cc1nc(N2CCC(NC(=O)c3ccc(F)cc3Cl)CC2)cc(C(F)(F)F)n1
-25%[70.6 µM]	Oc1ccccc1CN1CCOC[C@H]1c1ncc(-c2ccc(F)cc2F)[nH]1
2%	Cc1cnc(C2CCOCC2)n1C1CCN(C(=O)Nc2ccc3c(c2)OCCO3)CC1
6%	O=S(=O)(c1ccccc1)N1CCC(n2cc(-c3cncnc3)nn2)CC1
-17%	NC(=O)c1cccc(NC(=O)c2cccc(CN3CCNC(=O)C3)c2)c1
1%	COCCn1nc2n(c1=O)CCN(C(=O)c1ccc(OC)nc1OC)CC2
-2%	O=C(Nc1ccccc1)N1CCC(N2CC3CC(C2)[C@H]2CCCC(=O)N2C3)CC1 (some centres not stated)
-10%	CCCc1noc(-c2cccn3c(CNC(=O)Cc4ccccc4Cl)nnc23)n1
3%	CCOc1cc(C(=O)NC2CCN(c3cc(-c4ccccc4)[nH]n3)C2)cc(OCC)c1OCC (configuration not stated)
-9%	c1cc(CN2CCc3c(sc4ncnc(N5CCCC5)c34)C2)ccn1
-15%[70.6 µM]	Cn1c([C@H]2CCN(Cc3ccccc3)C2)nc2ccccc21
-11%	COCCOC1CCOC2(CCN(C(=O)Nc3cccc(C)c3)CC2)C1 (configuration not stated)
3%	Cc1nc(CCCNC(=O)c2cc(S(N)(=O)=O)ccc2F)sc1C
-1%	O=C(NCc1cccc(F)c1)c1ccc(N2CC3CC(C2)[C@H]2CCCC(=O)N2C3)nc1 (some centres not stated)
-3%	O=C(O)c1coc(CN2C[C@@H](C(=O)O)[C@H](C3CC3)C2)n1
-12%	CCCN(C)C(=O)Cc1ccc(N(Cc2ccc(F)cc2)C(=O)c2ccco2)cc1
1%	CN1CCN(C(=O)C2CCc3nc(N4CCN(C(=O)C5CCC5)CC4)sc3C2)CC1 (configuration not stated)
5%[70.6 µM]	O=c1ncn(Cc2ccccc2)c2ccc(NCCOc3ccccc3)nc12
-2%	CC(C)CN1CC(CNC(=O)c2ccc(Oc3ccccc3)cc2)Oc2ccnc(-c3ccc(OCC(=O)O)cc3)c2C1=O (configuration not stated)

Exported with each value named: two of the compounds above
compound: NC(=O)c1cccc(NC(=O)c2cccc(CN3CCNC(=O)C3)c2)c1
  NPR1 antag: -17%
compound: COCCn1nc2n(c1=O)CCN(C(=O)c1ccc(OC)nc1OC)CC2
  NPR1 antag: 1%

(next part)
NPR1 antag	compound
8%[70.6 µM]	N#Cc1cccc(NC(=O)N[C@H]2[C@H](O)[C@@H](N3CCCC3)[C@@H]3OC[C@H]2O3)c1
2%	O=C(NCc1ccncc1)C1CN(S(=O)(=O)c2ccccc2)CC12CCCCC2 (configuration not stated)
-5%	CCN1CCN(CCNC(=O)C2CCN(C(=O)N3CC4CC(C3)[C@H]3CCCC(=O)N3C4)CC2)CC1 (some centres not stated)
-4%[70.6 µM]	CC1=C[C@@H](CNC(=O)c2ccccn2)[C@H](C(C)C)C[C@H]1CC(=O)N1CCCC1
0%	COc1ccc(C(=O)NC2CCN(c3cn[nH]c(=O)c3)CC2)cc1OC
4%	CN(C(=O)C1C2C(=O)N(C3CCCCCC3)C[C@@]23C=C[C@@H]1O3)C1CCSCC1 (some centres not stated)
-21%[70.6 µM]	Cc1nn2c(c1-c1ccccc1OCc1ccccc1)N(Cc1ccccc1)CCC2
4%	CCNC(=O)N1CCOc2ccc(CN3CCc4ccccc4C3)cc2C1
1%[70.6 µM]	Cc1cc(-c2nccc3c(=O)cc(N(C)C)oc23)ccn1
?	O=c1c2nc(N3CCC(c4ccccc4)CC3)ccc2ncn1C1CC1
0%	CCNC(=O)N(C1CC1)C1CCOC2(CCN(C(=O)NCc3ccc(C)cc3)CC2)C1 (configuration not stated)
3%	O=C(c1ccc(OC2CCN(C(=O)c3ccco3)CC2)nc1)N1CCOCC1
2%	Cc1nc(N(C)C)ncc1C(=O)NC(C(=O)O)c1c(C)n[nH]c1C (configuration not stated)
-12%	O=C(c1cc(CN2CCOCC2)on1)N1CCc2c(nc3cc(-c4ccccc4)[nH]n3c2=O)C1
-23%[70.6 µM]	COc1ccc(-c2noc([C@@H]3C[C@H](NS(=O)(=O)c4ccc(F)cc4)CN3C)n2)cc1
4%	Cc1cnc(C2CC2)n1CCNS(=O)(=O)c1cc(F)cc(F)c1
2%[70.6 µM]	O=C1N(Cc2ccccc2)CCOC12CCN(Cc1cc(F)ccc1F)CC2
-1%[70.6 µM]	COC(=O)[C@@H]1Cc2ncn(C)c2CN1S(=O)(=O)c1ccc(OC)cc1
-10%	COc1cccc(CC(=O)N2CCC3(CC2)OC(=O)N(Cc2csc(C)n2)C3(C)c2ccccc2)c1 (configuration not stated)
11%	CN(CC1CCCCC1)C1CCc2nn(C)c(=O)n2CC1 (configuration not stated)
5%	CCCN(CC1CCOC1)S(=O)(=O)c1ccc(Br)cc1 (configuration not stated)
0%[70.6 µM]	Fc1ccc(-c2cc(CC3(NCc4cccnc4)COC3)no2)cc1
-3%	CC(=O)Nc1ccc(C2(C(=O)NCc3cccc(F)c3)CCC2)cc1
-10%[70.6 µM]	Cc1nn(-c2ccccc2[N+](=O)[O-])c(C)c1[C@@H]1C=C[C@@H](NCc2ccc(F)cc2)C1
5%	COCc1noc([C@@H]2CC(F)(F)CN2C(=O)Cc2cccc(F)c2)n1
?	Cc1ccc(NC(=O)Cn2ccn3nc4c(c3c2=O)CCCCC4)cc1C
6%	CCn1ccc(C(=O)N2CCCCCCN(C)C(=O)[C@@H]3CCC[C@@H]32)n1
4%	CNc1nc2c(c(C(=O)N3CCCC3)n1)CN(CCC(C)c1ccc(C)o1)CC2 (configuration not stated)
6.3µM*	Cc1nc(C)c(C(=O)N2CCC(Oc3ccc(-c4noc(-c5ccccc5)n4)cc3)C2)s1 (configuration not stated)
5%[70.6 µM]	Cn1ccnc1CN1C(=O)CO[C@H]2CN(C(=O)c3cccnc3)C[C@H]21

In the list so far, these contain a COOH group:
NPR1 antag	compound
5%	Cn1ccnc1CN1C[C@@H](C(=O)O)C[C@@H](C(=O)NCc2ccncc2)C1
-3%	O=C(O)c1coc(CN2C[C@@H](C(=O)O)[C@H](C3CC3)C2)n1
-2%	CC(C)CN1CC(CNC(=O)c2ccc(Oc3ccccc3)cc2)Oc2ccnc(-c3ccc(OCC(=O)O)cc3)c2C1=O (configuration not stated)
2%	Cc1nc(N(C)C)ncc1C(=O)NC(C(=O)O)c1c(C)n[nH]c1C (configuration not stated)

(more compounds)
NPR1 antag	compound
3%	Cc1nn(C)c(C)c1CCN(C)C(=O)CCC1CCN(C(=O)c2ccccc2F)CC1
0%	O=C(c1ccco1)N1C[C@@H](CO)[C@H](c2ccncc2)C1
-13%	CN1C(=O)CC[C@]2(C(=O)NCc3ccccc3Cl)CCCC[C@@H]12
5%[70.6 µM]	COCCNC(=O)c1cc(-c2ccccc2OC(F)(F)F)cc2ncn(C)c12
-24%[70.6 µM]	Cn1ccc2c(C(=O)NCc3cccnc3)nc(-c3ccc(F)cc3)cc21
2%	O=C(c1ccccc1F)N1CC2CC(C1)[C@H]1CCCC(=O)N1C2 (some centres not stated)
-4%[70.6 µM]	COCCN1C(=O)CO[C@H]2CN(c3nccc(OC)n3)C[C@H]21
2%	COc1ccc(-c2cc(N3CCCN(C(=O)c4ccc5ncccc5c4)CC3)n[nH]2)cc1
1%	COC(=O)c1ccccc1NC(=O)Cn1cccc1-c1nc(-c2ccc(OC)c(F)c2)no1
6%	CCN(CCN(C)C)C(=O)c1ccc2c(c1)C(O)CCCCCN2CCOC (configuration not stated)
-6%	CCC1(N2CCN(C(=O)c3cc(Cl)ccc3OC)CC2)CCN(C(=O)NC)C1 (configuration not stated)
3%	Cc1ccc(C(=O)N2CCC(C(NC(=O)CC(C)C)C(=O)N3CCCCC3)CC2)cc1 (configuration not stated)
-4%	O=C(CN1CC2CC(C1)[C@H]1CCCC(=O)N1C2)N1CCCCCC1 (some centres not stated)
3%	O=C(COc1cccc(-c2nnc3n2CCCC3)c1)NCc1ccccc1
-21%[70.6 µM]	CCNC(=O)N[C@H]1C[C@@H](c2nc(-c3ccc(OC(F)(F)F)cc3)no2)N(C)C1
-15%[70.6 µM]	OCc1ccc(CN[C@H]2[C@H](O)[C@@H](N3CCC(Cc4ccccc4)CC3)[C@@H]3OC[C@H]2O3)o1
11µM*	FC(F)(F)c1cccc(-c2noc(-c3ccc(NCCN4CCOCC4)nc3)n2)c1
11µM*	CC1=NS(=O)(=O)N(C)C=C1C(=O)OCc1nc(Cc2ccc(C)cc2)no1
-5%	CC(C)(O)C#Cc1ccc(CN2CCCC(CCC(=O)Nc3ccccc3F)C2)s1 (configuration not stated)
9%	O=C(NCC1CCOCC1)c1ccoc1
5%[70.6 µM]	COc1ccc(O[C@H]2COCCN(S(=O)(=O)c3c(C)noc3C)C2)cc1
0%	Cc1ccc(C(=O)NCC2CCOCC2)cn1
7%	COCc1nc(CCNC(=O)c2ccoc2)no1
1%[70.6 µM]	Cn1cc(-c2cnc3[nH]cc(CC(=O)Nc4cccnc4)c3c2)cn1
-8%	COc1cc(OC)cc(C(=O)N2CCC[C@H]2c2nc(-c3ccc(C)cc3)no2)c1
-1%	CNC(=O)CCC[C@@H]1[C@H]2CCCN3CCC[C@@H](CN1C(=O)NCc1ccc(C)cc1)[C@@H]23
8%	COc1ccc2cc(C(=O)N3C[C@@H](CO)[C@H](c4ccccn4)C3)[nH]c2c1
-9%	CCn1ccc(C(=O)NCc2cccnc2N(C)CCc2ccccn2)n1
3%	COC[C@@H]1CN(C(=O)Cc2c[nH]c3ccccc23)C[C@H]1c1nc(C)no1
0%	O=C1Nc2ccccc2CC12CCCCN2[S+](=O)([O-])c1cccc(C(F)(F)F)c1 (configuration not stated)
-1%	Cc1nc(C(=O)N2CCC(c3nnc(Cn4cccn4)n3C)CC2)cs1
4%	Cc1cccc(C(=O)N2C[C@@H](F)C[C@H]2C(=O)N2CCOCC2)c1
11µM*	COCc1nc(-c2ccc(OC3CN(S(=O)(=O)c4ccccc4C)C3)cc2)no1
2%	CCc1nc2c(c(-c3ccc(Cl)cc3)n1)CN(Cc1ccc(OC)cc1)CC2
-2%[70.6 µM]	COc1ccc(-c2nnc(C[C@@H]3C[C@@H](C(C)C)[C@H](CO)C=C3C)o2)cc1
6%	CC(C)NC(=O)C1CCC(=O)N1C1CCNCC1 (configuration not stated)
-11%[70.6 µM]	O=C(NCc1ccccc1)c1cnc2n1CCN(Cc1ccc(F)cc1)CC2
3%	CNC(=O)[C@@H]1CN(C(=O)c2cc(C)[nH]n2)C[C@H]1C1CCN(C)CC1
-8%	CCN1CC2(CCN(C(=O)c3cnc4c(O)cccn4c3=O)CC2)OC1=O
10%	Cn1c(CNC(=O)CC2CCOCC2)nc2ccccc21
2%	CCn1cc(CN2C[C@@H](CO)[C@H](NC(=O)C3CC3)C2)cn1
-7%	c1ccc(CCc2nc3nccc(-c4ccc5c(c4)OCCCO5)n3n2)cc1
-1%	O=C(COc1ccc2nncn2n1)N1CCCC(c2ccn[nH]2)C1 (configuration not stated)
-3%	Cc1nc(C)c(C(=O)N2CCC(N3CC4CC(C3)[C@H]3CCCC(=O)N3C4)CC2)s1 (some centres not stated)
4%	CN(Cc1ccc(N2CCNC2=O)cc1)CC1CCCN(CCc2ccc(F)cc2)C1 (configuration not stated)
0%	O=C1NCCC[C@@H]1NC(=O)[C@H]1CN(C(=O)c2ccccc2)CCN1S(=O)(=O)c1ccc(F)cc1
-2%[70.6 µM]	CNC(=O)C1(N2CCC[C@H]2C(=O)N2CCOCC2)COC1

NPR1 antag, entries above that show a hit
NPR1 antag	compound
6.3µM*	Cc1nc(C)c(C(=O)N2CCC(Oc3ccc(-c4noc(-c5ccccc5)n4)cc3)C2)s1 (configuration not stated)
11µM*	FC(F)(F)c1cccc(-c2noc(-c3ccc(NCCN4CCOCC4)nc3)n2)c1
11µM*	CC1=NS(=O)(=O)N(C)C=C1C(=O)OCc1nc(Cc2ccc(C)cc2)no1
11µM*	COCc1nc(-c2ccc(OC3CN(S(=O)(=O)c4ccccc4C)C3)cc2)no1
